KCNQ2 block = KCNQ2 channel blockers in CHO-K1 cells – cell-based, FluxOR thallium flux, B-score, primary screen (AID 2156); 20 min; active compounds read low; only compounds with negative scores are shown here; some inactives read as strong as hits; B-score at 10 µM; 1.1% of 310,000 active;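 active means fluorescence ratio B-score at most minus 3 library SDs, with starting brightness B-score within 2 library SDs, cut at about -5.5 in these data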
Target sequence (O88943 whole entry, looked up): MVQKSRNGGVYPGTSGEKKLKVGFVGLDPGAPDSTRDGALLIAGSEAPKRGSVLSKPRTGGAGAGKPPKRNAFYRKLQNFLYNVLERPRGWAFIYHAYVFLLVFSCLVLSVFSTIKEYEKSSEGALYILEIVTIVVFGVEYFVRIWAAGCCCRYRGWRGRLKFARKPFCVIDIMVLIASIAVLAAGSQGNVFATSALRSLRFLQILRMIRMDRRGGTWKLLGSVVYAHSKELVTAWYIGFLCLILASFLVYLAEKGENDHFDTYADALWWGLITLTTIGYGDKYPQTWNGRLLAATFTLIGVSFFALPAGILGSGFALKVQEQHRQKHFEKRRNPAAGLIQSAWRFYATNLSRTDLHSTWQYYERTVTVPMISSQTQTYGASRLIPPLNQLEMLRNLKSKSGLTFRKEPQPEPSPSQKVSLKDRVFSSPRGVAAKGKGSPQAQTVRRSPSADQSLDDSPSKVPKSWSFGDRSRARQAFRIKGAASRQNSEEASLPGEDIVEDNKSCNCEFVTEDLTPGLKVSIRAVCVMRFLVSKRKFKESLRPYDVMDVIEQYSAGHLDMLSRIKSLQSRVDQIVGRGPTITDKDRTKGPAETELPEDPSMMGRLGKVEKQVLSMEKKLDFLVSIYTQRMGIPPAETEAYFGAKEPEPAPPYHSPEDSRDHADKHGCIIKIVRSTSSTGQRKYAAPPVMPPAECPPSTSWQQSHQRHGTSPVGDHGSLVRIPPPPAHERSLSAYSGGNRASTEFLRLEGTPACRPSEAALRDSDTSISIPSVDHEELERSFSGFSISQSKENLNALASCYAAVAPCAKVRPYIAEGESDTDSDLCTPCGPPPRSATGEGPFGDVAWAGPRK
KCNQ2 block baseline = also measured in KCNQ2 block; calls as there; B-score; measured here: initial fluorescence intensity artifact check;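 brightness before thallium and not channel activity; 0 = typical well and far values either way flag optical interference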
* marks the source's active call; other numbers are inactive results; i = inactive.

KCNQ2 block	KCNQ2 block baseline	structure
i	0.88	Cc1cccc(CCNC(=O)Cc2ccc(NC3=NC4CS(=O)(=O)CC4S3)cc2)c1 (stereo unspecified)
i	0.28	O=C(N/N=C/c1cnc(N2CCCCC2)s1)c1ccc(Cl)cc1
i	2	O=C(COC(=O)C1=COCCO1)Nc1ccc(OC(F)F)cc1
i	0.18	O=C(CC(c1ccccc1)c1ccccc1)OCn1nnc2ccccc2c1=O
i	0.37	Cc1ccc(S(=O)(=O)Nc2ccc(Cl)cc2C(=O)c2ccc(F)cc2)cc1
-7.16*	2.7*	COc1ccc(Cl)cc1NC(=O)CN(C)Cc1ccc(OC)c(OC)c1
i	0.54	O=C(NCCc1ccccc1)c1ccncc1
i	-0.63	Cc1cccc(OCCCn2c(=O)sc3ccccc32)c1
i	0.51	Cn1c(/C(C#N)=C(\O)c2ccccc2Cl)nc2ccccc21
i	0.09	COC(=O)c1cc(CNC(=O)c2cccc(Cl)c2Cl)ccc1OC
i	1.2	O=C(O)c1cccc(S(=O)(=O)NNc2ccccc2C(F)(F)F)c1
-6.16*	-0.17*	CCOc1ccc(-c2nc(C#N)c(N3CCN(Cc4ccccc4)CC3)o2)cc1
i	3.12	Cc1cc(C)cc(NC(=O)CCc2ccc(C)o2)c1
i	-0.16	COc1cc(C(=O)OCC(=O)NC2CCCC2)cc(OC)c1OC
i	1.54	Cc1cc(C)c(C)c(OCC(=O)O/N=C(\N)c2ccccn2)c1
i	1.15	O=C(CCCN1C(=O)CCC1=O)Nc1ccc2c(c1)OCCO2
i	2.35	O=S(=O)(Nc1ccccc1)c1ccc(NS(=O)(=O)c2c(F)cccc2F)cc1
i	-1.07	O=C(c1cnc2sccn2c1=O)N(Cc1ccccc1)c1ccccn1
i	1.48	CCN(CC)CCN(Cc1cc2cc3c(cc2[nH]c1=O)OCO3)C(=S)NCC(C)C
i	0.67	Nc1c(C(=O)Nc2cccc(C(=O)O)c2)sc2nc3c(cc12)CCCC3
i	1.08	O=C(CCSc1ccc(Cl)cc1)NC12CC3CC(CC(C3)C1)C2
i	-1.9	CCCCn1c(N)c(N(Cc2ccccc2OC)C(=O)CSCC(=O)Nc2cccc(C)c2)c(=O)[nH]c1=O
i	-0.37	CC(C)CCN1CC(C(=O)NCc2ccccc2)CC1=O (stereo unspecified)
i	-0.82	COc1ccc(OC(C)C(=O)NCCC2=CCCCC2)cc1 (stereo unspecified)
i	1.4	CC1CCN(Cc2ccc(NC(=O)C3CCN(c4nnc(-n5cccc5)s4)CC3)cc2)CC1
i	-1.29	COc1ccc(Oc2ccc(C(F)(F)F)cc2NC(=O)c2ccc(F)cc2)cc1
i	0.8	O=S(=O)(NCCc1ccncc1)c1ccc(F)cc1
i	1.55	CCOC(=O)c1[nH]c2ccccc2c1NC(=O)NC1CCCCC1
i	0.16	O=C(CC1=NCCNC(c2ccccc2)C1)c1ccccc1O (stereo unspecified)
i	-0.29	CNC(=S)NCCc1ccc(OC)c(OC)c1
i	-1.24	Cc1nc2ccc(C(=O)O)cc2c2c1CC(C)S2 (stereo unspecified)
i	-0.97	COc1cccc(C2=NCCc3cc4c(cc32)OCO4)c1OC
i	1.4	CCN(CC(=O)NCc1ccc(F)cc1)CC(=O)NC1CCCC1
i	-0.13	Cn1c(-c2ccc3c(c2)OCO3)cnc1N
i	0.81	COc1ccccc1N(CC(=O)Nc1ccc(Cc2ccncc2)cc1)S(=O)(=O)c1ccccc1
i	2.58	CCOC(=O)c1sc(=S)n(-c2ccc(C)cc2)c1SC
i	1.77	COc1cc(/C=N/NC(=O)c2cc3ccccc3cc2O)ccc1OCCN1CCCCC1
i	0.01	Cc1scc(-c2n[nH]c(=S)n2C(C)c2ccccc2)c1C (stereo unspecified)
i	1.51	COC(=O)Nc1ccc(S(=O)(=O)N2CCCc3ccccc32)cc1
i	0.5	O=C1C(Cc2ccc3[nH]ccc3c2)NC(=S)N1c1ccccc1 (stereo unspecified)
i	1.62	O=C(CN1C(=O)c2cccc3cccc(c23)C1=O)NCCCO
i	-0.05	COc1ccc2sc(NC(=O)CC(C)C)nc2c1
-5.78*	0.61*	CCOc1ccccc1NC(=O)C(NCC1CCCCC1)c1ccccc1 (stereo unspecified)
i	-1.5	CC(Oc1ccccc1)C(=O)N1CCN=C1SCc1ccccc1 (stereo unspecified)
i	0.02	CS(=O)(=O)N(CC(=O)NCc1ccc2c(c1)OCO2)Cc1ccc(Cl)cc1
i	1.18	COc1ccccc1NC(=O)CN1CCN(S(=O)(=O)c2ccc(Br)cc2)CC1
i	-0.02	COC(=O)CCN(c1ccccc1)S(=O)(=O)c1ccc(OC)cc1
i	-0.55	O=C(c1cc(-c2ccc(O)cc2)on1)N1CCCCCC1
i	-1.43	OCc1nc2ccccc2n1CCCCOc1ccccc1
i	-0.74	Cc1ccc(C)c(NC(=O)COc2cccc3c2CCN(Cc2ccccc2C)C3=O)c1
i	1.13	Cc1ccc(S(=O)(=O)N(C)C)cc1NC(=O)COC(=O)CCC1CCCC1
i	0.7	O=C(NC1CCCCC1)C(=S)N1CCOCC1
i	0.74	COc1ccc(N(C)S(=O)(=O)c2cccc(C(=O)NC3CCCCCC3)c2)cc1
i	0.33	O=C(COc1ccc(S(=O)(=O)N2CCCC2)cc1)NCCC1=CCCCC1
i	1.46	Cc1cc(C)c(S(=O)(=O)N2CCN(C(=O)N(C)C)CC2)c(C)c1
i	-0.32	S=C(Nc1ccc2c(c1)OCCO2)Nc1ccc2c(c1)OCO2
i	1.51	COc1ccc(-c2ccc(-c3noc(-c4ccco4)n3)c(OC)n2)cc1
i	-0.09	COc1ccc(C2C3=C(CC(C)(C)CC3=O)Oc3ncn(Cc4ccco4)c(=N)c32)cc1 (stereo unspecified)
i	0.31	O=C(N/N=C/c1ccc(OCc2ccc(F)cc2)cc1)c1ccccc1
i	3.31	CC(C)NS(=O)(=O)c1ccc2c(c1)NCC2

Continued:
KCNQ2 block	KCNQ2 block baseline	structure
i	-0.01	O=C(CSc1ccccc1)N1CCCC(Nc2ccccc2)C1 (stereo unspecified)
i	1.08	COc1ccccc1/C=C\C=N\n1c(-c2ccc(Cl)cc2)n[nH]c1=S
i	0.2	COc1ccc(N2CCN(C(=O)c3cc(C)on3)CC2)cc1
i	1.25	Cc1ccccc1Nc1nc(N)nc(CSc2nnc(-c3ccccc3)n2C)n1
i	-1.94	O=C(O)c1cc(S(=O)(=O)N2CCN(C(=O)c3ccco3)CC2)c(Cl)cc1Cl
i	-0.01	Cc1cnc(C(=O)OC(C(=O)Nc2cc(C(F)(F)F)ccc2Cl)c2ccccc2)cn1 (stereo unspecified)
i	-2.44	O=C(c1ccc2c(c1)OCO2)C1CCCN(Cc2cccc(C(F)(F)F)c2)C1 (stereo unspecified)
i	-0.32	NCCc1cnc[nH]1
i	1.73	CCCCCCNCc1c(F)cccc1Cl
i	-2.35	O=S(=O)(Nc1cccc(CO)c1)c1cccs1
i	0.29	O=C(NCc1ccc(Cl)cc1)C(=O)NCC(c1ccco1)N1CCOCC1 (stereo unspecified)
i	-0.1	CC(=O)Nc1nc(-c2ccccc2)nc(C)c1C(C)=O
i	0.94	COc1ccc(-n2cc3c(-c4cccc(Br)c4)nnc(C)c3n2)cc1
i	-0.21	COc1ccccc1NC(=O)CSc1nnc(C)n1Cc1ccccc1
i	3.69	O=C(Nc1ccc(S(=O)(=O)NC2=NCCCCC2)cc1)c1ccc2ccccc2n1
i	0.48	Cc1c(Cl)ccc2c(C(N)=O)cc(-c3ccccn3)nc12
i	-0.65	CCCOC(=O)C[N+](C)(C)CCOC1CC2CCC1(C)C2(C)C (stereo unspecified)
i	-1.11	Cc1c(Cc2ccccc2)c(NCCN(C)C)n2c(nc3ccccc32)c1C#N
i	-1.38	COc1cc(NC(=S)N2CCCC(CO)C2)c(OC)cc1Cl (stereo unspecified)
i	1.45	CCOC(=O)c1cc(-c2ccc(OC)cc2)nn1-c1ccc(C(=O)O)cc1
i	-0.75	Cc1oc(C)c(S(=O)(=O)NCc2cccs2)c1C(=O)O
i	-0.02	CSc1ncc(Cl)c(C(=O)Nc2cccc(Cl)c2)n1
i	1.43	Cc1cccc(-c2nc(Nc3ccc(O)cc3)c3ccccc3n2)c1
i	0.15	COCc1[nH]nc2c1C1(C(=O)Nc3ccc(F)cc31)C(C#N)=C(N)O2 (stereo unspecified)
i	-1.29	CCOC(=O)c1ccc(NS(=O)(=O)c2cccc3nsnc23)cc1
i	-0.91	CCOC(=O)C1CCN(C(=O)CN2C(=O)C(C(C)C)Oc3ccccc32)CC1 (stereo unspecified)
i	0.01	COc1ccc(C(=O)O/N=C(\N)Cc2cccs2)cc1OC
i	2.31	COc1ccc(N2CCN(CCNC(=O)Nc3cc(Cl)ccc3OC)CC2)cc1
i	-1.24	CCCCCCCNC(=O)CN1C(=O)CSc2ccc(S(=O)(=O)N3CCOCC3)cc21
i	-0.2	Cc1ccccc1-n1ncc2c1CC(C)(C)CC2NC(=O)C1CCC1 (stereo unspecified)
i	0.88	O=C(NC1CCCc2ccccc21)c1ccccn1 (stereo unspecified)
i	-1.42	CCn1cc(Cl)c(C(=O)Nc2ccccc2C(N)=O)n1
i	1.5	Cc1cc(C)c(-c2c(O)c3cnn(-c4ccccc4)c3[nH]c2=O)c(C)c1
i	0.97	N#Cc1c(N)oc(-c2ccccc2)c1-c1ccccc1
i	0.01	CCn1cc(C(=O)NP(=O)(Nc2ccc(C)cc2)Nc2ccc(C)cc2)c2ccccc21
i	0.95	COC(=O)C1=C(C(=O)OC)SC2(S1)C(C(=O)OC)=C(C(=O)OC)SC1=C2c2cc(C)cc(C)c2NC1(C)C
i	1.33	S=c1[nH]nc(Cn2nnc3ccccc32)n1-c1ccc(Cl)cc1
i	-1.54	O=C(COc1ccccc1)Nc1sc2c(c1C(=O)NCc1cccnc1)CCCC2
i	1.06	COc1cccc2c(=O)n(CC(=O)Nc3ccc(F)cc3F)ccc12
i	0.44	COc1ccc(OC)c(/C=N/NC(=O)CCc2c(C)n[nH]c2C)c1
i	0.64	Cc1ccc(C)c(S(=O)(=O)N/N=C/c2ccc(C(=O)O)cc2)c1
i	0.15	CCN(CC)CCNc1ccc(Cl)cc1[N+](=O)[O-]
i	-1.4	CCOC(=O)COc1c(-c2ccc(OC)cc2)oc2ccccc2c1=O
i	-0.95	COC(=O)C1=C(CSc2nnnn2C)NC(=O)NC1c1cc(C)ccc1C (stereo unspecified)
i	1.9	O=C(O)COc1ccc(Nc2ccccc2)cc1
i	0.41	COCCCN1CN(Cc2ccco2)CNC1=S
i	0.78	COc1cc(OC)c(OC)cc1/C=N/NC(=O)c1cc(-c2cccn2C)n[nH]1
i	0.36	Cc1ccc(C)c(SCC(=O)OCC(=O)Nc2ccc(S(=O)(=O)N3CCOCC3)cc2)c1
i	1.63	Cc1cc(C)cc(NC(=S)NC2CC3CCCC(C2)N3CC(C)C)c1 (stereo unspecified)
i	0.77	N#CCO/N=C/C(=O)Nc1ccc(F)cc1F
-6.69*	-2.5*	O=C(CSc1nnc(Cc2cccs2)n1Cc1ccco1)Nc1ccc(Br)cc1
i	-0.02	CCOC(=O)Nc1ccc2c(CN3CCC(C(=O)OC)CC3)cc(=O)oc2c1
i	-1.33	CCOC(=O)NC(=O)CSc1nnc(C)s1
i	0.17	CC(=O)Nc1ccc(NS(=O)(=O)c2ccccc2)cc1
i	0.14	Cc1ccc(-c2cc(C(F)(F)F)n3nc(C(=O)Nc4ccon4)cc3n2)cc1C
i	-1.06	O=C(Nc1ccc(Cl)cc1)OCc1cc(-c2ccccc2)on1
i	-0.78	O=C1c2ccc(Oc3ccc([N+](=O)[O-])cc3)cc2C(=O)N1c1ccncc1
i	-3.02	Cc1ccc(OCC(=O)N/N=C/C=C/c2ccco2)cc1
i	-0.07	COc1ccc(S(=O)(=O)NCC(=O)Nc2cccc(C)c2C)cc1OC
i	1.24	NC(=O)C1Cc2ccccc2CN1S(=O)(=O)c1cccs1 (stereo unspecified)

Further records
KCNQ2 block	KCNQ2 block baseline	structure
i	0.42	Nc1c(-c2ccc(Cl)cc2)cnn1C1CCS(=O)(=O)C1 (stereo unspecified)
i	1.15	CC(C)(CC(=O)O)CC(=O)N1CCCN(c2nccc(C(F)(F)F)n2)CC1
i	0.02	ON1C2CCCCC2N(O)C1c1ccccc1C(F)(F)F (stereo unspecified)
i	-0.3	COc1cccc(C(=O)N2CCN(C(=O)C3COc4ccccc4O3)CC2)c1 (stereo unspecified)
i	2.44	CC(C)(C)[C@H]1C=C(C(=O)NCc2nc3ccccc3[nH]2)O[C@@H](OCCCCO)C1

Some of the compounds tested; rates above refer to the full screens.
